GLA inh pH 4.5: blocks human alpha-galactosidase A at pH 4.5; P06280; purified enzyme, 4-MU-alpha-Gal fluorescence, pH 4.5; activity change, negative = inhibition, % at 105 µM; 230,000 tested, under 10 active; AID 1467; inconclusive = small, poorly fitted or top-dose-only inhibition, or a rising curve; inactive = flat fitted curve, though single readings scatter; no compound was filed as active;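 further: 0% = full activity with enzyme and -100% = basal without enzyme; dose as in the result columns while the protocol names 77 µM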
Target sequence (P06280 whole entry, looked up): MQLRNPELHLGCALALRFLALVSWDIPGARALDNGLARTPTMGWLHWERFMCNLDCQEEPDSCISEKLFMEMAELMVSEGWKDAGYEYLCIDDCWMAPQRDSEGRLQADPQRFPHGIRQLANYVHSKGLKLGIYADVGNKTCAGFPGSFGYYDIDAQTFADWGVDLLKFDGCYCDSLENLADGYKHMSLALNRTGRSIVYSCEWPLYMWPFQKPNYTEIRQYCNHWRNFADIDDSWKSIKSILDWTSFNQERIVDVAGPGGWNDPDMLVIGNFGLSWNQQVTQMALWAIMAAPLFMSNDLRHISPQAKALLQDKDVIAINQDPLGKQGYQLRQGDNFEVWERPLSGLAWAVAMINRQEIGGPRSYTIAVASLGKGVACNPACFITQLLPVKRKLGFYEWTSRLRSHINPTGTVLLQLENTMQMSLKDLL
Rango-impB inh: Rango-importin beta binding inhibition. Q14974. Rango CFP/YFP FRET sensor + importin beta, 45 min. Potency, µM (series often up to 92.2 µM), without a hit: top-dose inhibition of complex formation. actives 0.031% (n = 340,000); active = rising FRET ratio curve, often small or poorly fitted; inconclusive = mostly compound fluorescence or quenching in the first reads; inactive = flat curves in all reads;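 further: potency means the concentration at half of the fitted maximal effect; 0% = DMSO wells and 100% = buffer wells lacking importin beta; nearly all actives have a fitted effect of over 15% in size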
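Inhibition scored from the CFP 486 nm/YFP 530 nm FRET ratio 45 min after adding 0.125 microM importin beta to 50 nM Rango biosensor preincubated 5 min with compound (room temperature, PBS with DTT, Tween-20, BSA). No-importin wells as positive control.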
Rango dissoc inh: inhibitors of RanGTP-induced Rango-importin beta complex dissociation; Biochemical FRET Rango-importin beta, RanGTP-induced dissociation; O95149+P62826; actives 0.071% (n = 340,000); Potency, µM (doses to about 46.1 µM), without a hit: top-dose activity change, negative = inhibition; AID 540253; active means falling FRET ratio curve, often poorly fitted, with flat reads before Ran was added; inconclusive means other falling curves, or compound fluorescence or quenching; inactive means flat or rising ratio curve;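 further: potency means the concentration at half of the fitted maximal effect; % of control where 0% means no effect; nearly all actives have a fitted effect of over 45% in size; -100% = wells without RanGTP and RCC1; the record marks most hits as doubtful in a second field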
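Rango FRET biosensor (snurportin-1 IBB flanked by N-terminal EYFP and C-terminal CFP10) at 0.1 uM, with 0.25 uM importin beta in PBS, 1mM DTT, 0.02% Tween-20, 0.1% BSA. 0.6 uM Ran, 2mM GTP and 0.2 uM RCC1 were then added for 45 min at room temperature. Inhibition read as loss of FRET rise.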
miR-21 reporter: miR-21 reporter, rising signal; HeLa miR-21 FLuc reporter, luciferase, 48 h; Potency, µM (titrated, usually from 38.3 µM), for the others: at the top dose reporter change, positive = more light; 340,000 tested, under 10 active; AID 2288; active = well fitted rising curve with a large enough effect; inconclusive = small, poorly fitted or top-dose-only effect; inactive = no such curve, though single readings can be large or run the other way;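 further: % of control where 0% means no effect; miR-21 action dims this reporter so a rising signal means less miR-21 action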
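HeLa cells stably expressing CMV-driven firefly luciferase with a downstream miR-21 binding sequence, endogenously expressing miR-21, were treated with titrations (up to about 40uM final) for 48 hours at 37 degree Celsius. Luciferase luminescence was read after lysis.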
* hit, by the source's call; ? = inconclusive; nt = no result given; [ ] = remark or other dose.

SMILES	GLA inh pH 4.5	Rango-impB inh	Rango dissoc inh	miR-21 reporter
CC(Oc1ccc(F)cc1Br)c1nc2ccccc2c(=O)[nH]1 (centres undefined)	nt	0.4%	1%	-40%
CCn1c(CNC(=O)Cc2ccc(OC)cc2)nnc1SCC(=O)c1ccc(Br)cc1	2	-1.0%	1%	7%
NC(=O)CCN1CCC(c2nc3ccccc3s2)CC1	nt	-0.5%	8%	-5%
O=C(Nc1nc(N2C(=O)c3ccccc3C2=O)n(-c2ccccc2)n1)c1ccc(F)cc1	10	2.2%	-5%	-7%
COc1cc(NC(=O)c2ccc(CNc3c(N4CCCC4)c(=O)c3=O)cc2)cc(OC)c1OC	0	-1.1%	8%	11%
Cc1ccc(C(=O)NC(C)CCc2ccccc2)cc1[N+](=O)[O-] (centres undefined)	?	3.9%	-5%	-3%
CC(C)C[C@@]12C(=O)N(c3ccc(Br)cc3)C(=O)N1[C@H](c1ccc(Br)cc1)[C@@H]1C(=O)N(C(C)(C)C)C(=O)[C@@H]12	nt	0.1%	-12%	7%
CC1CCN(CC(=O)Nc2cccc(C(=O)Nc3cccc(C(F)(F)F)c3)c2)CC1	-15	4.9%	15%	21%
CC(NC(=O)COc1ccccc1Cl)c1ccccc1 (centres undefined)	nt	9.2%	3%	0%
COc1cc(/C=C/c2cc(C(=O)O)c3ccccc3n2)ccc1OC(F)F	-4	-0.3%	1%	-22%
CC(=O)c1ccc(Nc2cc(C)nc3ccc(C)cc23)cc1	-9	3.3%	-14%	17%
O=C(NCc1ccccc1)/C(=C/c1cccc([N+](=O)[O-])c1)NC(=O)c1ccco1	nt	0.0%	0%	-2%
C#CCn1cc[n+](CC(=O)N(C)C)c1	4	-3.4%	-6%	-1%
COc1ccc(CCNC(=S)N2CCC(Cc3ccccc3)CC2)cc1OC	?	2.6%	-3%	14%
COc1ccc(NC(=S)NCc2ccc(Cl)cc2)c(OC)c1	nt	-0.5%	1%	-8%
CC1CCCCC1N(C)C1CCN(C(=O)CNC(=O)/C=C/c2cccc(Cl)c2)CC1 (centres undefined)	nt	-0.8%	64%	15%
Cc1ccc(C(=O)NC(=S)N(C)C2CCCCC2)cc1	nt	-5.6%	22%	-44%
CCS(=O)(=O)c1ccc2oc(SCC(=O)Nc3ccc(OC)cc3)nc2c1	3	1.5%	-14%	-41%
CCN(CC)CCCOC(=O)C(c1ccccc1)c1ccccc1	nt	1.5%	14%	-8%
CCN(CC)S(=O)(=O)c1ccc(NC2c3ccccc3C(=O)N2Cc2ccco2)cc1 (centres undefined)	-5	-0.7%	-2%	4%
O=C(CC1CCCCC1)Nc1ccccc1-c1ccccc1	-3	?	-13%	-11%
COc1ccc(-c2nc(-c3cccs3)c(-c3cccs3)[nH]2)cc1O	-7	?	-18%	8%
CC(C)OP(=O)(Nc1cccc2ccccc12)OC(C)C	-4	3.2%	-5%	0%
Cc1cc(Cl)ccc1OCC(=O)Nc1ccc2oc(=O)ccc2c1	nt	-0.4%	12%	10%
CN(C)CCCN(C(=O)/C=C/c1cccs1)c1nc2ccc(F)cc2s1	3	15%	17%	?
CC(C)NC(=O)Cn1c(SCC(=O)N2CCc3ccccc3C2)nc2ccccc21	-2	-1.9%	-3%	-9%
CCOC(=O)c1cc(-c2ccc(/C=N\n3cnnc3)o2)ccc1Cl	-4	-5.0%	9%	-7%
Cc1ccc2c(c1)N(CC(=O)OCC(=O)NCc1ccccc1)C(=O)CO2	4	0.3%	3%	-11%
Cc1cc(NCc2ccc3c(c2)OCO3)n2nc(C)nc2n1	-19	-0.3%	-6%	-3%
CCOc1cc(CN2CCN(CCOCCO)CC2)ccc1OC	-2	5.6%	14%	0%
CCOC(=O)c1c(C)[nH]c(C)c1C(=O)COC(=O)CSc1ccc(C)cc1	nt	5.6%	17%	nt
Cc1nn2c(NCCN3CCOCC3)c3c(nc2c1-c1ccccc1)CCCC3	-5	1.0%	15%	2%
O=C(O)c1cccc(CN2C(=O)SC(Nc3ccccc3)C2=O)c1 (centres undefined)	0	2.2%	14%	-10%
CCCCn1c(N)c(N(CC)C(=O)c2cccs2)c(=O)[nH]c1=O	nt	?	-6%	nt
CN(C(=O)c1ccc(NC(=O)Cc2ccc(NC(=O)C3CCCN(C(=O)C4CCCC4)C3)cc2)cc1)C1CCCC1 (centres undefined)	nt	-2.1%	-10%	nt
CCCOc1ccc(C(=O)Nn2c(C)nc3ccccc3c2=O)cc1	1	-4.1%	0%	-3%
COc1cc(NC(=O)C(C)Oc2ccccc2)c(OC)cc1NC(=O)c1ccccc1 (centres undefined)	nt	2.5%	-11%	1%
CC(C)CC(NC(=O)C1CCCN1C(=O)CNC(=O)OCc1ccccc1)C(=O)O (centres undefined)	nt	0.4%	-3%	0%
CC(=O)OC1CCC2(C)C(=CCC3C4CC(=O)N(O)C(=O)C4(C)CCC32)C1 (centres undefined)	nt	8.4%	-7%	nt
COc1ccc2[nH]c(C)c(CCN3C(=O)OC(C)(C)C3(C)O)c2c1 (centres undefined)	6	?	-8%	0%
COc1ccc(N2C(=O)C3CCCN3C2c2cccc(Br)c2)cc1 (centres undefined)	3	6.8%	23%	-6%
CCN(CC)C(=O)c1ccccc1NC(=O)CN1C(=O)c2ccccc2S1(=O)=O	nt	0.8%	9%	5%
O=C(CCSCc1cccc(Cl)c1)NCCc1ccccc1	7	-0.3%	21%	-5%
CC(=O)Nc1ccc(NC(=O)C(C)OC(=O)CCC2CCCCC2)cc1 (centres undefined)	nt	-0.4%	-22%	-7%
CCOC(=O)CC(=O)Nc1ccc(C)cc1	0	0.3%	0%	-14%

Five of these compounds, reformatted.
Results follow in this order: GLA inh pH 4.5, Rango-impB inh, Rango dissoc inh, miR-21 reporter
- CC(C)CC(NC(=O)C1CCCN1C(=O)CNC(=O)OCc1ccccc1)C(=O)O (centres undefined)
→ nt, 0.4%, -3%, 0%
- O=C(O)c1cccc(CN2C(=O)SC(Nc3ccccc3)C2=O)c1 (centres undefined)
→ 0, 2.2%, 14%, -10%
- CCCOc1ccc(C(=O)Nn2c(C)nc3ccccc3c2=O)cc1
→ 1, -4.1%, 0%, -3%
- CC(NC(=O)COc1ccccc1Cl)c1ccccc1 (centres undefined)
→ nt, 9.2%, 3%, 0%
- NC(=O)CCN1CCC(c2nc3ccccc3s2)CC1
→ nt, -0.5%, 8%, -5%

The results go on:
SMILES	GLA inh pH 4.5	Rango-impB inh	Rango dissoc inh	miR-21 reporter
COc1ccc(C#Cc2c(-c3ccc(OC)cc3)oc3ccc(-c4ccc5c(c4)OCO5)cc23)cc1	nt	-1.3%	11%	nt
COc1c(C(=O)Nc2nnc(C3CC3)s2)csc1Cl	nt	0.9%	-5%	-44%
CC(NC(=O)C(C)N1CCN(Cc2ccccc2)CC1)c1ccccc1 (centres undefined)	nt	-0.9%	3%	0%
O=C(NCCS(=O)(=O)NCc1ccccc1Cl)c1ccccc1	nt	-2.1%	17%	nt
COC(=O)c1ccc(N2CCN(C)CC2)c(NC(=O)COc2ccccc2)c1	nt	-0.6%	12%	1%
c1c2c(cc3sc(N4CCOCC4)nc13)OCO2	-11	?	17%	-22%
COc1ccc(C(=O)COC(=O)CCNS(=O)(=O)c2ccccc2)cc1Br	nt	4.0%	-6%	-2%
CC(C)(C)NC(=O)CSc1ccc(S(=O)(=O)N2CCOCC2)cn1	nt	0.7%	10%	nt
CCOc1ccc(C(=O)N2CCCCCC2)cc1	1	1.4%	6%	-20%
Cc1ccc(S(=O)(=O)N/N=C/c2ccc3nccnc3c2)cc1	-4	?	9%	-4%
O=C1CC(c2ccco2)Cc2nc(Nc3ccc(F)cc3)ncc21 (centres undefined)	1	-1.3%	11%	-11%
O=C(CCc1ccccc1)NNC(=O)c1ccccc1Br	-2	-0.4%	2%	-4%
COc1ccc(-c2cc(=O)oc3c(C)c(OCC(=O)NCCCn4ccnc4)ccc23)cc1	nt	1.0%	9%	-5%
CC(C)CN(C(=O)CCCOc1ccc(Cl)cc1Cl)c1c(N)n(Cc2ccccc2)c(=O)[nH]c1=O	nt	-1.3%	1%	nt
O=c1cc(NCc2ccc3c(c2)OCO3)[nH]c(=O)n1-c1ccc(Cl)cc1	-4	0.8%	3%	0%

Molecules shown so far with an aryl thioether with sulfur outside any ring:
SMILES	GLA inh pH 4.5	Rango-impB inh	Rango dissoc inh	miR-21 reporter
CCn1c(CNC(=O)Cc2ccc(OC)cc2)nnc1SCC(=O)c1ccc(Br)cc1	2	-1.0%	1%	7%
CCS(=O)(=O)c1ccc2oc(SCC(=O)Nc3ccc(OC)cc3)nc2c1	3	1.5%	-14%	-41%
CC(C)NC(=O)Cn1c(SCC(=O)N2CCc3ccccc3C2)nc2ccccc21	-2	-1.9%	-3%	-9%
CCOC(=O)c1c(C)[nH]c(C)c1C(=O)COC(=O)CSc1ccc(C)cc1	nt	5.6%	17%	nt
CC(C)(C)NC(=O)CSc1ccc(S(=O)(=O)N2CCOCC2)cn1	nt	0.7%	10%	nt

Additional results.
SMILES	GLA inh pH 4.5	Rango-impB inh	Rango dissoc inh	miR-21 reporter
CC(/C=N/n1c(-c2ccccn2)n[nH]c1=S)=C\c1ccccc1	6	-0.9%	8%	-14%
COc1ccc(OC)c(N(CC(=O)N2CCN(c3cc(Cl)ccc3C)CC2)S(C)(=O)=O)c1	-4	0.6%	5%	12%
Cc1cccc(OCC(O)CN2CC3(C)CC2CC(C)(C)C3)c1 (centres undefined)	-8	1.4%	-6%	-6%
CC(C)(C)c1ccc(C(=O)NCCC(=O)N2CCCC2)cc1	nt	-0.4%	4%	-72%
C=C(C)Cn1c(N2CCCC2)nc2c1c(=O)n(C)c(=O)n2C	nt	3.0%	0%	0%
COc1cc2cc(CN(C(=O)NC3CCCCC3)C3CCCC3)c(=O)[nH]c2cc1OC	-5	0.8%	2%	-4%
CCOC(=O)Cn1c2[n+](c3ccccc31)CC(O)CS2 (centres undefined)	-9	2.4%	11%	-6%
CCN(CC)S(=O)(=O)c1ccc(OC)c(NC(=O)c2cccs2)c1	-1	1.1%	-7%	-2%
O=C(CNc1ccccc1F)Nc1cccc2ccccc12	nt	-5.3%	2%	-6%
CCOC(=O)CSc1nc2cc(C(=O)NCc3ccco3)ccc2c(=O)n1-c1ccc(F)cc1	-14	-0.9%	1%	2%
CC(C)CCNC(=O)C1c2ccccc2Oc2ccccc21	nt	-4.2%	-13%	1%
O=C(N/N=C/c1ccc(OCC(=O)N2CCCC2)cc1)C(=O)NC1CC1	nt	-2.2%	-10%	1%
Cc1ccc(N(C(=O)CCCC(=O)Nc2ccccn2)C(C(=O)NC2CCCC2)c2ccc(O)cc2)cc1C (centres undefined)	nt	0.1%	18%	0%
O=C(C/C=N\OCc1c(Cl)cccc1Cl)Oc1ccc(Cl)cc1Cl	0	6.7%	15%	0%
N#C/C(=C\c1ccncc1)c1nc2ccccc2c(=O)[nH]1	-6	?	?	-8%
Cc1ccc(NC(=O)Cc2noc3ccccc23)c(C)c1	2	0.9%	0%	-37%
COC(=O)C1(Cc2ccc(O)cc2)OC(=O)C(O)=C1c1ccc(O)cc1 (centres undefined)	3	-1.3%	2%	-6%
Cc1ccccc1C(=O)NCC(=O)OC(C)C(=O)Nc1ccnn1C(C)C (centres undefined)	nt	2.8%	-6%	nt
CCOC(=O)C1CCCN(Cc2ccc(OC)c(OCc3ccccc3)c2)C1 (centres undefined)	nt	5.0%	0%	-1%
Cc1ccc(Cl)cc1NC(=O)CSc1nncn1-c1ccccn1	nt	-4.6%	3%	0%
CCCC(CCC)C(=O)Nc1cccc(C(=O)O)c1	8	-1.9%	1%	-6%
Cc1ccc(NC(=O)CCC(=O)N/N=C/c2coc3ccccc3c2=O)cc1	-11	1.8%	7%	1%
CCn1ncc(C2=NOC(C(=O)Nc3cccc(O)c3)C2)c1C (centres undefined)	7[21.1 µM]	-1.5%	4%	-7%
CCCC(=O)Nc1ccc(Nc2ccccc2)cc1	-2	2.8%	21%	-46%

This is a subset; count on the stated rates, not on these rows.
